CBX7 AlphaScr: blocks human CBX7 binding to H3K27me3 peptide | O95931 | AlphaScreen His6-CBX7 / biotin-H3K27me3 peptide binding; hits give low values | normalised signal (fraction of DMSO) (concentration not given with the values) | actives 1.1% (n = 66,000) | AID 1224903; in the data active means normalised signal below about 0.5;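 further: 100 nL library stock added to about 20 µL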
Target sequence (O95931 whole entry, looked up): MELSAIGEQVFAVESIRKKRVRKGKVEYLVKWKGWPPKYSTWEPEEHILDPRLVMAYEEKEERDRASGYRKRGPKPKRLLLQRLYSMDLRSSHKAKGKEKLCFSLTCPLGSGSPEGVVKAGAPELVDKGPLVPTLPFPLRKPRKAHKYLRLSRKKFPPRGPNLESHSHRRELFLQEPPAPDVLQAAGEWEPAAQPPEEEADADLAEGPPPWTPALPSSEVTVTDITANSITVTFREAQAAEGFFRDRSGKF
CBX7 AlphaScr z-score: further read-out of CBX7 AlphaScr, marked with its call; z-score; measured here: z-score of CBX7 signal; some inactives read as strong as hits; reference of the scale not given here;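 same signal on another scale; lower means less binding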
An asterisk follows results filed as active; & = joins results of further samples. Not all compounds are listed, so the mix of outcomes need not match the whole.

SMILES	CBX7 AlphaScr	CBX7 AlphaScr z-score
Cc1cccc(-n2ccnc2SCC(=O)Nc2ccc(F)cc2F)c1C	0.84	-0.16
Cc1cc(Nc2ccccc2F)n2ncnc2n1	1	0.33
Cc1ccc(NC(=O)c2cnn3cccnc23)cc1C	1	-0.05
COc1ccc(CNC(=O)CN2C(=O)CC(C)(C)Sc3ccccc32)cc1	0.95	-1.1
COc1cc(OC)c(NC(=O)c2sc3ncn(CC(=O)N4CCCCC4)c(=O)c3c2C)cc1Cl	1.1	0.6
CCOc1cccc(-c2nnc(NC(=O)c3ccccc3F)s2)c1	1.1	1.2
COc1ccc(Cl)cc1NC(=O)CCNC(=O)Cn1ccc2ccccc2c1=O	1.2	4.9
CCCCNC(=O)c1sc2ncnc(N3CCOCC3)c2c1C	1	0.54
CN1CCN(C(=O)C2CC(=O)N(c3ccc(F)c(Cl)c3)C2)CC1 (stereo not drawn)	0.99	-0.46
Cc1nc2cc(-c3ccc(Cl)cc3)nn2c(C)c1CCC(=O)N1CCc2ccccc21	0.99	-0.27
CC(C)COc1ccc(C(=O)N(Cc2ccccc2)C2CCS(=O)(=O)C2)cc1 (stereo not drawn)	0.97	-0.84
CCCCNC(=O)c1cc(-c2ccccc2O)on1	1.1	0.067
COc1ccc2c(c1)CCc1sc(NC(=O)c3ccccc3OC)nc1-2	1.4	5.8
CCOC(CNC(=O)c1ccc2c(c1)ncn2-c1cc(C)ccc1OC)OCC	1	0.29
Cc1oc(-c2ccc(Cl)cc2)nc1CN1CCC(C(=O)NCCN2CCCCCC2)CC1	2.2	10
Cc1ccc(-c2cc(C(F)(F)F)n3ncc(C(=O)Nc4ccc(C)c(C)c4)c3n2)cc1	0.88	-1.5
CCCCNS(=O)(=O)c1ccc2c(c1)CCN2C(C)=O	0.8	-0.79
O=C(O)c1ccc2c(c1)C(=O)N(c1ccc(Cl)cn1)C2=O	1	0.66
COc1cccc(CNS(=O)(=O)c2ccc3c(c2)CCC(=O)N3)c1	0.99	-0.31
CCc1ccccc1NC(=O)CCCC1=NS(=O)(=O)c2ccccc2N1	0.98	-0.38
CCCCOC(=O)Cc1c(C)nc(SCc2ccccc2)[nH]c1=O	1.3	2.4
Cc1onc(-c2c(F)cccc2Cl)c1C(=O)Nc1ccc(F)c(Cl)c1	1.1&1.1	2.8&0.11
CC(c1ccncc1)N(CCN(C)C)C(=O)Nc1ccc(Cl)c(Cl)c1 (stereo not drawn)	1.1	2.8
Cc1ccccc1-c1nc(CSCC(=O)O)c(C)o1	1.1	2.5
Cc1ccc2nc(-c3ccc(NC(=O)Nc4ccccc4)cc3)sc2c1	1.3	2.1

3 compounds from above, sorted by the value under CBX7 AlphaScr z-score, low to high:
compound	CBX7 AlphaScr z-score
CCCCNC(=O)c1cc(-c2ccccc2O)on1	0.067
O=C(O)c1ccc2c(c1)C(=O)N(c1ccc(Cl)cn1)C2=O	0.66
CCCCOC(=O)Cc1c(C)nc(SCc2ccccc2)[nH]c1=O	2.4

(cont.)
SMILES	CBX7 AlphaScr	CBX7 AlphaScr z-score
O=C(NCc1ccc(F)cc1)C1CCN(S(=O)(=O)c2cccc3cccnc23)CC1	0.83	-2.1
Cc1c(C(=O)NCCC(C)C)oc2ccc(S(=O)(=O)N3CC(C)CC(C)C3)cc12 (stereo not drawn)	1.1	0.87
O=C(c1ccc2c(c1)N(Cc1ccccc1)C(=O)c1ccccc1S2=O)N1CCCCC1 (stereo not drawn)	0.95	-1.1
O=C1CCc2cc(S(=O)(=O)Nc3cccc(F)c3)ccc2N1	1.1	1.2
Cc1ccc(C(=O)Nc2c(C(=O)c3ccc(Br)cc3)oc3ccccc23)cc1	1.2	0.7
CC(=O)N1CCc2cc(S(=O)(=O)NCc3ccccc3Cl)ccc21	1	0.18
O=C(COc1ccc(F)cc1)Nc1nnc(C23CC4CC(CC(C4)C2)C3)s1	0.92	-1.3
Cc1cccc(CSc2nc3ccncc3n2Cc2nc(-c3cccc(C)c3)oc2C)c1	0.84	-2.2
COc1ccccc1NC(=O)NCc1ccccn1	0.86	-1.5
COc1ccc(-c2cc(C(F)(F)F)n3nc(C(=O)N(C)CCc4ccccn4)c(Cl)c3n2)cc1OC	0.96	-0.48
COc1ccc(C)cc1NC(=O)c1cc2c(C)nn(-c3ccccc3)c2s1	1.4&1.1	3.8&3.4
O=C(CCCn1c(=O)[nH]c2ccccc2c1=O)NCCc1c[nH]c2ccccc12	0.93	-0.2
Cc1ccc(Cl)cc1NC(=O)CCCN1C(=O)c2cccnc2C1=O	0.78	-3.7
N#Cc1nc(COc2ccccc2Cl)oc1NCc1cccnc1	0.95	-2.1
Cc1nc2c(-c3ccc(F)cc3)c(C)nn2c(C)c1CCC(=O)N1CCCC1	1	0.64
O=c1c2ccccc2c(-c2ccccc2)nn1-c1ccc(Cl)c(Cl)c1	1.2	5.8
O=C1C2C3C=CC(C3=C3CCCC3)C2C(=O)N1Cc1ccccc1 (stereo not drawn)	1.2	0.65
CCOC(=O)c1c(NC(=O)CN(CC)C2CCCCC2)sc2c1CCCC2	0.91	-2
Cc1ccc2c(c1)-c1c(cnn1CC(=O)NC1CCCCC1C)CO2 (stereo not drawn)	0.93	-1.4
CCCCC(NC(C)=O)c1nc2ccccc2n1Cc1ccccc1C (stereo not drawn)	1.2	1.4
Cc1ccc(Nc2c(-c3cccs3)nc3cc(C)ccn23)cc1	0.97	-0.24
O=C(Nc1ccc(C(=O)N2CCOCC2)cc1)Nc1ccc2snnc2c1	1	1.2
COc1ccc(CNC(=O)Cc2ccc(-n3c(=O)[nH]c4ccsc4c3=O)cc2)cc1	1.1	2.3
CCC(=O)OCCCNc1nc(-c2ccc(Cl)cc2)nc2ccccc12	1.2	9.9
CC(C)CCNC(=O)CN1C(=O)COc2ccc(S(=O)(=O)N3CCCC3)cc21	0.94	-1.9
Later entries.
SMILES	CBX7 AlphaScr	CBX7 AlphaScr z-score
COc1ccccc1Nc1cc(C(=O)NC2CCC(C)CC2)c2ccccc2n1 (stereo not drawn)	1.1	0.089
COCCCNC(=O)c1cc2c(-c3cccc(OC)c3)nn(C)c2s1	0.96	-0.56
CCCCN(CCCC)CC(O)CN(c1ccc(OC)cc1)S(=O)(=O)c1ccccc1 (stereo not drawn)	0.99	-0.028
Cc1ccc(Nc2nc3ccccc3nc2NS(=O)(=O)c2ccccc2)cc1	0.85	-4.4
Cc1ccc(C)c2[nH]c(=O)c(CCNC(=O)CCCc3ccccc3)cc12	1	0.8
COc1ccc(N2CCN(C(=O)c3cnn4c(C)c(Cc5ccccc5C)c(C)nc34)CC2)cc1	0.81	-5.3
CC(C)OCCCNC(=O)CCN1N=C(c2ccccc2)CCC1=O	1	0.68
CC(=O)N1CCc2cc(S(=O)(=O)N3CCN(c4cc(C)ccc4C)CC3)ccc21	1.1	3.3
CCN(CC)CCNC(=O)c1cc(Nc2ccc(C)c(C)c2)nc2ccccc12	1.2	2.5
CCCSCCCNC(=O)CN1C(=O)COc2ccc(S(=O)(=O)N3CCCCCC3)cc21	1	0.017
CCOC(=O)c1ccc2c(c1)c1c(n2CCN(Cc2ccccc2)Cc2ccccc2)C(=O)CCCC1	1.1	1.6
COc1ccc(-c2c(C)nn3c(N4CCC(C(=O)N5CCOCC5)CC4)cc(C)nc23)cc1OC	1	0.45
CCOc1cc2[nH]c(=O)n(Cc3ccc(C(=O)NCCOC)cc3)c(=O)c2cc1OCC	1	0.17
Cc1cc(NC(=O)CSc2nnc(Cc3cc(=O)[nH]c(=O)[nH]3)n2-c2ccc(F)cc2)no1	0.96	-1.1
CSc1nc(C)cc(Oc2ccc(OCC(N)=O)nn2)n1	1	0.41
O=C(C1CCCN(S(=O)(=O)c2cccc3cccnc23)C1)N1CCc2ccccc21 (stereo not drawn)	0.83	-1.9
O=C(CN1C(=O)COc2ccccc21)N1CCOCC1	1	1.4
Cc1ccc2nc(-c3cccnc3)c(Nc3ccc4c(c3)OCCO4)n2c1	1	0.0003
CCOP(=O)(OCC)c1nc(-c2ccccc2Cl)oc1N1CCOCC1	0.98	-0.12
Cc1cccc(NC(=O)C(Cc2ccccc2)NS(=O)(=O)c2ccc3c(c2)CCC(=O)N3)c1C (stereo not drawn)	0.98	-0.41
COc1ccccc1NC(=O)CSc1oc(-c2ccccc2)nc1S(=O)(=O)c1ccc(C)cc1	0.92	-0.37
CCn1c(C(=O)NCCCOC)cc2sc(Cl)cc21	1.1	1.7
Cc1ccc(NC(=O)c2cc(C)nn2-c2ccccc2)c(C)c1	1	1.2
COCCNC(=O)c1ccc2c(c1)ncn2-c1cccc(Cl)c1	1	0.41
COCC(C)NC(=O)c1cnn2c1NC(c1cccc(OC)c1)CC2C(F)(F)F (stereo not drawn)	0.99	-0.24

The last 4 compounds of the part before lead into the next.
SMILES	CBX7 AlphaScr	CBX7 AlphaScr z-score
CCn1c(C(=O)NCCCOC)cc2sc(Cl)cc21	1.1	1.7
Cc1ccc(NC(=O)c2cc(C)nn2-c2ccccc2)c(C)c1	1	1.2
COCCNC(=O)c1ccc2c(c1)ncn2-c1cccc(Cl)c1	1	0.41
COCC(C)NC(=O)c1cnn2c1NC(c1cccc(OC)c1)CC2C(F)(F)F (stereo not drawn)	0.99	-0.24
COc1ccc(OCc2nc(C#N)c(N3CCC(C(N)=O)CC3)o2)cc1	1.3	2.2
CC(C)OCCCNC(=O)c1ccc2c(c1)N(Cc1ccc(F)cc1)CCS2	0.93	-3.1
CC(C)NC(=O)c1cc2n(n1)C(C(F)(F)F)CC(c1ccc(Cl)cc1)N2 (stereo not drawn)	0.98	-0.3
O=C1CCCC2=C1C(c1cccnc1)CC(=O)N2c1ccccc1C(F)(F)F (stereo not drawn)	1.1	1.3
O=C(c1sccc1-n1cccc1)N1CCC(C(=O)N2CCCCCC2)CC1	0.96	-0.96
COc1cccc(-c2nc(CS(=O)(=O)CC(=O)N3C(C)CCCC3C)c(C)o2)c1 (stereo not drawn)	0.96	-0.33
O=C(Nc1ccc(Br)cc1F)c1csc2c1CCCC2	1.2	7.3
COc1ccc(C(=O)N2CC(=O)Nc3ccc(Cl)cc3C2c2ccc(F)cc2)c(OC)c1 (stereo not drawn)	0.96	-0.43
CCN(CC)C(=O)c1ccc2c(c1)N(Cc1ccccc1F)C(=O)c1ccccc1S2	1	0.27
COc1ccc(CCNc2ncnc3c2c(-c2ccccc2)cn3-c2ccc(C)cc2)cc1OC	0.95	-1.4
Cc1ccc(-c2cc(C(F)F)n3ncc(C(=O)NCc4ccccc4)c3n2)cc1	1	0.54
COc1cccc(NC(=O)c2nccnc2C(=O)O)c1	0.69	-4
COc1cc(OC)cc(-n2cc(-c3ccc(C)cc3)[nH]c2=O)c1	0.9	-2.4
COc1ccc(CCNC2CC(=O)N(c3ccc(NC(C)=O)cc3)C2=O)cc1OC (stereo not drawn)	0.99	-0.39
Cc1sc(N2CCOCC2)nc1-c1cc(Br)ccc1O	0.81&0.96	-2.7&-0.37
COc1ccc(Cc2nc(-c3ccc(Br)cc3)no2)cc1	2.1	1.3
CCCc1ccc(OCC(O)CN2CCN(c3ccc(OC)cc3)CC2)cc1 (stereo not drawn)	0.84	-1.7
Cc1cccc(N2CCN(C(=O)c3cnn(-c4ccccc4)c3-n3cccc3)CC2C)c1 (stereo not drawn)	0.98	-0.95
CS(=O)(=O)c1ccc2nc(NC(=O)c3ccccc3)sc2c1	1	1
Cc1cc(NC(=O)c2cc(-c3ccc(C)s3)nc3ccccc23)no1	0.78	-2.2
CCOCCCNC(=O)c1cc(=O)n(Cc2ccc(Cl)cc2)c2ccccc12	0.87	-1.4
CCC(C)c1ccc(OCC(=O)Nc2cccc(-c3nc4ncccc4o3)c2)cc1 (stereo not drawn)	0.84	-2.4
O=c1oc2c(CN3CCCCC3)c(O)ccc2cc1-c1nc2ccccc2[nH]1	1	0.89
CCCNC(=O)CS(=O)(=O)Cc1nc(-c2cccc(OC)c2)oc1C	0.99	-0.24
CCCCNC(=O)CCN1C(=O)C(C)Oc2ccc(C)cc21 (stereo not drawn)	1.1	1.7

Whole records as entered above. Screens in order: CBX7 AlphaScr | CBX7 AlphaScr z-score
Entry for COc1cccc(-c2nc(CS(=O)(=O)CC(=O)N3C(C)CCCC3C)c(C)o2)c1 (stereo not drawn) = 0.96 | -0.33
Entry for Cc1ccc(-c2cc(C(F)F)n3ncc(C(=O)NCc4ccccc4)c3n2)cc1 = 1 | 0.54
Entry for COc1ccc(C(=O)N2CC(=O)Nc3ccc(Cl)cc3C2c2ccc(F)cc2)c(OC)c1 (stereo not drawn) = 0.96 | -0.43

The main list resumes, starting 2 compounds before the break.
SMILES	CBX7 AlphaScr	CBX7 AlphaScr z-score
CCCNC(=O)CS(=O)(=O)Cc1nc(-c2cccc(OC)c2)oc1C	0.99	-0.24
CCCCNC(=O)CCN1C(=O)C(C)Oc2ccc(C)cc21 (stereo not drawn)	1.1	1.7
Cn1nc(CC(=O)Nc2ccc(F)cc2Cl)c2ccccc2c1=O	1.2	1.7
O=C(Cc1ccccc1)Nc1c2c(nc3ccccc13)CCC2	0.79	-2.9
Cc1ccc2c(c1)C(c1ccc(F)cc1)N(C(=O)COc1ccc3ccccc3c1)CC(=O)N2 (stereo not drawn)	0.71	-5.3
CCN(c1cccc(C(F)(F)F)c1)S(=O)(=O)c1ccc2c(c1)CCN2C(=O)C1CCC1	1.1	3.1
CCCOc1cccc(NC(=O)c2c(-c3ccccc3Cl)noc2C)c1	0.95	-0.52
CCOc1ccccc1NC(=O)C1CCN(S(=O)(=O)c2cccc3cccnc23)CC1	0.97	-0.45
O=C(c1ccc2c(c1)N(Cc1ccc(F)cc1)C(=O)c1ccccc1S2(=O)=O)N1CCOCC1	0.92	-0.83
CCOc1ccc(-c2cc(C(=O)NCCCN3CCN(C)CC3)c3ccccc3n2)cc1	1.1	2.1
O=C(CCCCCn1c(=O)c2sccc2n(Cc2cccc(F)c2)c1=O)NCc1ccc(F)cc1	1	0.23
CCCn1c(CCNC(=O)c2ccc(Cl)cc2)nc2ccccc21	1	0.78
O=C1CCCN1CCCNc1ncnc2c1c(-c1ccccc1)cn2-c1cccc(Cl)c1	0.89	-3
